Compound activity as filed in PubChem BioAssay.
Mtb betalactam – beta-lactam sensitization of Mtb H37Rv | inhibition, % at 25 µM | actives 0.27% (n = 330,000) | M. tuberculosis H37Rv growth with meropenem, percent inhibition; hits of this screen are not shown here;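 active means about 74% or more and at least 40 points above the plate without the antibiotic, then above 30% in a dose series; inconclusive means first-round hits that could not be retested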;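 further: growth measured after seven days incubation then overnight dye step; 0% = bacteria only wells and 100% = bacteria with antibiotic; twin plates without the antibiotic show which effects depend on it; some results filed as inactive read as strong as hits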
RecA intein inh – blocks M. tuberculosis RecA intein splicing. inhibition, %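 (about 9 µM by stock and volumes)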. actives 0.75% (n = 290,000). P9WHJ3. AID 2221. cell-free RecA intein splicing, fluorescence; in the data active means inhibition above about 30%; inconclusive means no clear call, values can overlap the other calls;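 further: 0% = vehicle wells and 100% = reference inhibitor control wells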
Target sequence (P9WHJ3 whole entry, looked up): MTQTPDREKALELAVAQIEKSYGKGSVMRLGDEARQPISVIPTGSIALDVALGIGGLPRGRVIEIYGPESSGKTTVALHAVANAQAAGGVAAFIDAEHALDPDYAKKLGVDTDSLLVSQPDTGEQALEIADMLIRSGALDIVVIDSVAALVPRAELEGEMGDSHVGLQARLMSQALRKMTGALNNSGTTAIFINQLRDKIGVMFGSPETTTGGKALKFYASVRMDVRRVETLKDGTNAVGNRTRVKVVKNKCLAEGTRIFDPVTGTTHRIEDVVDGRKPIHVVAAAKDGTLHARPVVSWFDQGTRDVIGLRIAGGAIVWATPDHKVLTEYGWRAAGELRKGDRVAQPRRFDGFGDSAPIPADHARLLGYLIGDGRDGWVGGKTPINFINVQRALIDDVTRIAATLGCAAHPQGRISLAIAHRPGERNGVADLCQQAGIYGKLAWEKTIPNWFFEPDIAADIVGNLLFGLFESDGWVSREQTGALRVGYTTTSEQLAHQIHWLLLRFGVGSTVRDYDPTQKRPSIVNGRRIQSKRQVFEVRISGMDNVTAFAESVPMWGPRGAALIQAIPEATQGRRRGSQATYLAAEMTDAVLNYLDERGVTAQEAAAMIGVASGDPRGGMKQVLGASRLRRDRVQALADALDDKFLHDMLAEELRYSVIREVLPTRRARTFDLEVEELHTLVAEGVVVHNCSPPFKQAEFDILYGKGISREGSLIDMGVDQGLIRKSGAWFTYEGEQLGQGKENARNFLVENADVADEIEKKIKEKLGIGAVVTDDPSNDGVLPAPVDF
Arbovirus anti – antivirals against arbovirus infection | arbovirus infection cell-based antiviral screen | inhibition, % at 10 µM | actives 0.37% (n = 200,000) | AID 1251;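 active means inhibition from about 30%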;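 further: bluetongue infection of BSR cells; cell survival read as ATP light after 72 h; 0% = infected wells without compound and 100% = uninfected wells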
Mtb H37Rv – M. tuberculosis H37Rv growth inhibitors, H37Rv strain (AID 1626); M. tuberculosis H37Rv growth inhibition; higher % means a stronger effect; one-dose inhibition, % at 10 µM; IC50 in µM for titrated hits; actives 0.95% (n = 220,000);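 active means confirmed in a dose series; inconclusive means inhibition above 80% but not taken into the dose series; inactive means below 80% or under 30% at every dose of the series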;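 further: bacteria incubated seven days before Alamar blue readout; 0% = bacteria only wells and 100% = bacteria with antibiotic wells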
YopH PTP inh – YopH (Yersinia) phosphatase inhibition | fluorescence Ex485/Em525 | inhibition, %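 (about 10 µM by stock and volumes)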 | actives 0.16% (n = 140,000);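 active means inhibition of 50% or more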;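 further: controls were vehicle for no effect and minimum signal wells for full effect; inactives centre near -20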
Arbovirus anti repeat – further read-out of Arbovirus anti, marked with its call; inhibition, %; measured here: 10K subset replicate screen; many hits read low in the repeat;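 first of two repeat runs on a subset; 0% = infected and 100% = uninfected wells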
Starred values were filed as active, the others as inactive; ? = inconclusive; / = no result given. Not all compounds are listed; count on the stated rates, not on these rows.

SMILES	Mtb betalactam	RecA intein inh	Arbovirus anti	Mtb H37Rv	YopH PTP inh	others
CCC(C)c1c(O)nc(SCc2ccccc2)[nH]c1=O (configuration not stated)	9	1.3	4	-1%	-17
COc1cc(S(=O)(=O)N2CCCCC2)ccc1NC(=O)Cc1ccccc1	-4	-4.0	-11	-2%	-34
CCC(NC(C)C)C(O)c1ccc(O)c(O)c1 (configuration not stated)	-3	-6.6	-16	-11%	20
Cc1ccc2nc(C)c3c(c2c1)OC(C(C)(Cl)Br)C3 (configuration not stated)	4	3.4	/	1%	/
O=C(Nc1nnc(CC2=CCCCC2)s1)c1cccs1	-2	1.9	-4	7%	-11
O=C(/C=C/c1ccccc1)Nc1nnc(SCC(=O)c2ccc3ccccc3c2)s1	1	/	5	9%	-23
Cc1ccccc1NC(=O)COc1ccc2oc(=O)cc(C)c2c1	-2	-1.0	-2	-2%	/
Cc1nn(Cc2ccccc2Cl)c(Cl)c1C(=O)OCC(=O)NC(=O)NC1CCCCC1	-1	6.4	6	6%	-18
COCC(=O)Nc1nnc(-c2ccc(C(C)(C)C)cc2)s1	74	1.4	3	18%	/
Cn1nc(CC(=O)NCc2ccc(C(F)(F)F)cc2)c2ccccc2c1=O	0	-0.4	11	-6%	-7
CCN1CCN(C(CNS(=O)(=O)c2ccccc2)c2ccccc2)CC1 (configuration not stated)	0	-0.6	/	/	/
Cc1ccc(C(=O)Nc2ccccc2C(=O)NC(Cc2ccccc2)C(=O)O)cc1 (configuration not stated)	3	-0.9	-1	-3%	/
O=C(O)CCCC(=O)NCCc1cccc(Cl)c1	-6	1.6	-1	-1%	-22
COc1ccc([N+](=O)[O-])cc1N1C(=O)c2cccnc2C1=O	1	0.2	/	/	/
O=S(=O)(c1ccc(Br)cc1)c1nc(-c2ccccc2)oc1N1CCOCC1	-1	3.3	/	/	/
COc1ccc(CNc2cccc3[nH]c(C(F)(F)F)nc23)cc1OC	32	-56	/	/	/
CN(C)c1ccc(C=NCC2COc3ccccc3O2)cc1 (configuration not stated)	7	-2.9	-2	-8%	/
Cc1ccc(NC(=O)N2C(=O)C3(OCCO3)c3ccccc32)cc1	-8	-1.2	15	9%	-35
O=C(O)COc1ccc(=O)n(-c2ccccc2)n1	1	-1.5	4	0%	-5
O=C(NCCSc1ncc(-c2ccccc2)[nH]1)c1ccco1	-3	0.6	/	/	/
COc1ccc(S(=O)(=O)N2CCN(C(=O)COc3ccc(C)c(C)c3)CC2)cc1OC	1	-1.6	/	/	/
CC1=NN(c2ccccc2)C(=O)C1(C)[N+](=O)[O-] (configuration not stated)	3	-0.4	3	7%	-19
COc1ccccc1NC(=O)Nc1ccc(Cl)c(S(=O)(=O)Nc2ccccc2OC)c1	-2	10.0	-8	6%	-22
CC(C)(C)C1CCC(C(=O)OCC(=O)Nc2ccc3[nH]c(=O)[nH]c3c2)CC1 (configuration not stated)	1	-4.4	-8	-1%	/
Cc1cccc2sc(N(CCCN3CCOCC3)C(=O)CS(=O)(=O)c3ccc(F)cc3)nc12	-4	2.4	/	/	/
COc1ccc(NC(=O)C(CC(C)C)NC(=O)C2CCCCC2)c(OC)c1 (configuration not stated)	-4	2.6	-3	-4%	/
CCOC(=O)N1CCN(C(=O)C2CCCN(S(=O)(=O)c3ccc(C)cc3)C2)CC1 (configuration not stated)	-6	-0.3	-1	-9%	-26
CCOC(=O)N1CCN(C(=O)Cc2ccc(-n3c(=O)[nH]c4ccccc4c3=O)cc2)CC1	-5	-2.1	7	-10%	-38
O=C(COC(=O)c1ccc[nH]c1=O)c1ccc(Cl)s1	1	1.0	7	0%	-30
Cn1c(-c2cccc(F)c2)nc2c1c(=O)[nH]c(=O)n2Cc1ccccc1	-1	-2.1	/	/	/
COC(=O)c1ccccc1NC(=S)NC(=O)c1cccc2ccccc12	3	11	-43	0%	-43
COc1ccc2nc(SCc3nc(N)nc(Nc4ccccc4)n3)[nH]c2c1	14	2.2	-2	-2%	-13	Arbovirus anti repeat=7
CS(=O)(=O)N1CCN(c2ccccc2NC(=O)c2ccc(-c3ccc(Br)cc3)o2)CC1	-5	8.6	-2	3%	6
CCC(C)C(=O)Nc1c2c(nc3c1CCC3)CCCC2 (configuration not stated)	-10	2.7	-7	-5%	-18
Cc1ccc(C2N(C)c3ccccc3-c3nc4ccccc4n32)o1 (configuration not stated)	9	-26	-9	-5%	-2
COc1ccc(CC(=O)Nc2ccc(-c3noc(-c4cccc(OC)c4)n3)cc2)cc1	5	-0.9	-18	-2%	-13
CN(C)S(=O)(=O)c1cccc(NC(=S)NC(=O)C2CCCCC2)c1	-1	0.9	5	11%	-50
CC(C)C(=O)Nc1cc(S(=O)(=O)Nc2cccc(Cl)c2)ccc1Cl	-2	3.9	12	6%	-30
c1coc(-c2nn3c(Cn4nnc5ccccc54)nnc3s2)c1	-1	5.0	-10	0%	-41
COc1cc(OC)c(NS(=O)(=O)c2cc(Br)cnc2N)cc1Cl	-1	-1.3	/	/	/

Of the compounds above, these have a furan ring, fused or not.
SMILES	Mtb betalactam	RecA intein inh	Arbovirus anti	Mtb H37Rv	YopH PTP inh	others
O=C(NCCSc1ncc(-c2ccccc2)[nH]1)c1ccco1	-3	0.6	/	/	/
CS(=O)(=O)N1CCN(c2ccccc2NC(=O)c2ccc(-c3ccc(Br)cc3)o2)CC1	-5	8.6	-2	3%	6
Cc1ccc(C2N(C)c3ccccc3-c3nc4ccccc4n32)o1 (configuration not stated)	9	-26	-9	-5%	-2
c1coc(-c2nn3c(Cn4nnc5ccccc54)nnc3s2)c1	-1	5.0	-10	0%	-41

(continued)
SMILES	Mtb betalactam	RecA intein inh	Arbovirus anti	Mtb H37Rv	YopH PTP inh	others
O=C(c1cncc(Br)c1)N1CCN(S(=O)(=O)c2ccc(Cl)cc2)CC1	-13	-0.1	/	/	/
COc1ccc(C(=O)Nc2ncc(C)s2)cc1S(=O)(=O)N1CCCC1	-5	-6.5	2	-1%	/
COc1ccc(NC(C)=O)cc1NC(=O)c1cccc(C(F)(F)F)c1	4	-0.8	4	1%	/
O=C(COc1ccc(Cl)cc1)N(c1ccccc1Cl)C1CN2CCC1CC2 (configuration not stated)	-5	0.9	/	12%	/
Cc1ccc(S(=O)(=O)N2CCC(C(=O)OCC(=O)NCc3ccco3)CC2)cc1C	-5	-0.4	/	/	/
O=C1CN(C(=O)c2c(F)cccc2F)C(c2ccccc2)c2cc(Br)ccc2N1 (configuration not stated)	1	-2.2	/	/	/
CC(=O)NC1=NN(C(C)=O)C2(S1)C(=O)N(C(C)C)c1ccc(C)cc12 (configuration not stated)	0	-0.2	4	-6%	7
COCCNC(=O)C(c1ccc(C)o1)N(Cc1ccc(OC)cc1)C(=O)Cn1nnc2ccccc21 (configuration not stated)	-5	-1.0	2	-7%	2
CC1=CC(=O)C2=C(C)CC(O)C3C(C)C(=O)OC3C12 (configuration not stated)	5	2.1	3	-3%	-30
O=C(NCC1CCCO1)C1CCCN(S(=O)(=O)c2ccc(Cl)cc2)C1 (configuration not stated)	-3	-2.1	/	/	/
O=C(NC(=S)Nc1ccc(CN2CCOCC2)cc1)c1ccc2c(c1)OCCO2	66	-1.2	/	8%	/
CN(CC(=O)N1CCCC1)S(=O)(=O)c1cccc(Cl)c1	-9	4.7	/	/	/
CSc1ccc(C#N)cc1NC(=O)c1cccnc1Cl	-8	/	2	4%	/
CCOc1ccc(CCNC(=O)C2CCN(S(=O)(=O)N3CC(C)CC(C)C3)CC2)cc1OCC (configuration not stated)	-5	-3.7	/	/	/
CCc1sc(C(=O)NCCCN2CCCC2=O)cc1Br	8	-6.7	/	/	/
Cc1c(NC(=O)CNCc2ccc3c(c2)OCO3)c(=O)n(-c2ccccc2)n1C	-13	-1.5	/	/	/
COC(=O)c1ccc(NS(=O)(=O)c2cc3c4c(c2)C(C)C(=O)N4CCC3)cc1 (configuration not stated)	-9	-1.7	/	/	/
CSc1nc(Cl)c(C#N)c(-c2ccc(C)cc2)n1	3	22	20	-10%	14
CCOCC(=O)Nc1ccc(S(=O)(=O)Nc2nccs2)cc1	-5	-3.1	/	/	/
CC(C)NC(=O)COC(=O)c1cccc(NS(=O)(=O)/C=C/c2ccccc2)c1	2	-3.5	-1	-1%	-19
CCS(=O)(=O)c1ccc(-c2csc(-c3ccccc3Cl)n2)c(Cl)c1Cl	3	0.1	-9	-10%	-29
Cn1cccc1/C=N/NC(=O)c1ccccn1	99	2.0	/	36%	/
O=C(c1ccccn1)c1cc2ccccc2n1S(=O)(=O)c1ccccc1	4	-2.1	0	9%	-48
COc1ccc(CN2CCN(Cc3ccco3)CC2)cc1	2	1.2	/	/	/
CN1C(=O)N(C)C2(c3ccccc3)Nn3c(s/c(=C/c4ccccc4)c3=O)=NC12c1ccccc1 (configuration not stated)	1	1.1	0	1%	-5
O=C(O)c1cc(-c2cccc([N+](=O)[O-])c2)nc2ccccc12	10	-2.6	/	-7%	/
CCCN1CCN(C(=O)Cn2ncc3ccccc32)CC1	2	/	14	-5%	-44	Arbovirus anti repeat=6
CC(=O)c1cccc(NC(=O)COC(=O)c2ccc3c(c2)OCCO3)c1	36	-1.4	0	5%	/
CCCc1cc(NCCCN2CCOCC2)n2c(nc3ccccc32)c1C#N	-14	-101	-19	-2%	-10
Cc1ccccc1C(=O)NCCN=C1NS(=O)(=O)c2ccccc21	-2	-0.3	2	1%	-17	Arbovirus anti repeat=-4
CCN(CC)C(=O)CC(c1ccc(OC)cc1)c1c(O)cc(OC)cc1OC (configuration not stated)	-5	-1.1	/	0%	/
Nc1nn2c(-c3ccccc3)cc(=O)[nH]c2c1N=Nc1ccc(Br)cc1	/	/	-9	?	/
COc1ccccc1CN1C[C@@H]2C[C@@H](C3=Cc4cccc(OC)c4OC3)N3CCC[C@@]23C1=O	1	7.0	5	-3%	/
CCOC(=O)c1[nH]c(C)c(/C(O)=C2\C(=O)C(=O)N(CCCN(C)C)C2c2cccnc2)c1C (configuration not stated)	-4	/	3	-2%	-36
N=c1c2c(n(Cc3cccc(Cl)c3)c3c1CCC3)CCCC2	-8	3.9	-10	7%	-15
CC(C)Oc1ccc(CSc2nnc3n(C)c(=O)c4c5c(sc4n23)CCCC5)cc1	/	-1.0	/	7%	-165
CCC1(c2ccc(F)cc2)NC(=O)N(CC(=O)N(C)C2CCS(=O)(=O)C2)C1=O (configuration not stated)	-13	0.8	/	/	/
COc1ccc(-n2c(SCC(=O)Nc3cc(C)on3)nc3c(c2=O)SCC3)cc1OC	-7	2.8	/	/	/
COc1cc(OC)cc(C(=O)N[C@H](C(=O)N2CCc3ccccc32)C(C)C)c1	-1	4.2	-5	8%	-11
O=[N+]([O-])c1ccccc1S(=O)(=O)N1CCN(Cc2ccccc2)CC1	1	-0.8	/	/	/

Five compounds picked at random from the list so far:
SMILES	Mtb betalactam	RecA intein inh	Arbovirus anti	Mtb H37Rv	YopH PTP inh	others
CC(C)Oc1ccc(CSc2nnc3n(C)c(=O)c4c5c(sc4n23)CCCC5)cc1	/	-1.0	/	7%	-165
COc1ccccc1CN1C[C@@H]2C[C@@H](C3=Cc4cccc(OC)c4OC3)N3CCC[C@@]23C1=O	1	7.0	5	-3%	/
Nc1nn2c(-c3ccccc3)cc(=O)[nH]c2c1N=Nc1ccc(Br)cc1	/	/	-9	?	/
CCC1(c2ccc(F)cc2)NC(=O)N(CC(=O)N(C)C2CCS(=O)(=O)C2)C1=O (configuration not stated)	-13	0.8	/	/	/
N=c1c2c(n(Cc3cccc(Cl)c3)c3c1CCC3)CCCC2	-8	3.9	-10	7%	-15

More results follow:
SMILES	Mtb betalactam	RecA intein inh	Arbovirus anti	Mtb H37Rv	YopH PTP inh	others
CCN(Cc1ccccc1)c1ccc(/C=N/NC(=S)NC(C)C)cc1	9	2.4	15	14%	-17
CC(=O)c1ccc(N2CCN(S(=O)(=O)c3c(C)[nH]c(C)c3C(=O)N3CCCCC3)CC2)cc1	4	-2.7	/	/	/
C=CCSc1nnc(NC(=O)Cc2ccc(OC)c(OC)c2)s1	-2	0.2	9	-10%	/
O=C(NC1CCCCC1)C1CCN(C(=O)c2ccc(Cl)cc2)CC1	2	1.3	/	/	/
CC(=O)N1[C@H](C)C=C[C@]1(Cc1ccccc1)C(=O)NCc1cc(F)cc(C(F)(F)F)c1	-2	-0.8	-9	-4%	-26
O=C(COC(=O)c1n[nH]c2ccccc12)NC(=O)NC1CCCC1	-11	/	-5	-2%	-9
COC(=O)c1sccc1NC(=O)Nc1ccccc1OC	-9	1.7	/	/	/
COc1ccccc1NS(=O)(=O)c1ccc(O)c(C(=O)OCC(=O)N2c3ccccc3CC2C)c1 (configuration not stated)	-1	-5.8	2	2%	/
Cc1cc(N2CCN(Cc3nc(-c4ccc(Cl)cc4)oc3C)CC2)cc(C)n1	6	1.6	/	4%	/
CSc1ccccc1C(=O)Nc1ccc2c(c1)OCO2	-2	1.0	-3	5%	/
Cc1cnc(C(=O)NCc2ccc(F)cc2)cn1	-4	0.5	/	/	/
